Screening results as filed in PubChem BioAssay.
TRPML1 ag – qHTS for Agonists of the Human Mucolipin Transient Receptor Potential 1 (TRPML1) | TRPML1-expressing cells, Ca2+ dye fluorescence, FDSS; host cell line not named in the record; reference of the full effect not given here | 410,000 compounds, 0.12% hits | Mucolipin-1 (Homo sapiens), Q9GZU1 | AID 624414, 2012 | activation, % (concentration not given with the values); in the data active = activation above about 50%; inconclusive = about 30% to 50%; inactive = below about 30%; also: 0% is about no effect; the text of the record puts the active cut at 80%
Target sequence (Q9GZU1 whole entry, looked up): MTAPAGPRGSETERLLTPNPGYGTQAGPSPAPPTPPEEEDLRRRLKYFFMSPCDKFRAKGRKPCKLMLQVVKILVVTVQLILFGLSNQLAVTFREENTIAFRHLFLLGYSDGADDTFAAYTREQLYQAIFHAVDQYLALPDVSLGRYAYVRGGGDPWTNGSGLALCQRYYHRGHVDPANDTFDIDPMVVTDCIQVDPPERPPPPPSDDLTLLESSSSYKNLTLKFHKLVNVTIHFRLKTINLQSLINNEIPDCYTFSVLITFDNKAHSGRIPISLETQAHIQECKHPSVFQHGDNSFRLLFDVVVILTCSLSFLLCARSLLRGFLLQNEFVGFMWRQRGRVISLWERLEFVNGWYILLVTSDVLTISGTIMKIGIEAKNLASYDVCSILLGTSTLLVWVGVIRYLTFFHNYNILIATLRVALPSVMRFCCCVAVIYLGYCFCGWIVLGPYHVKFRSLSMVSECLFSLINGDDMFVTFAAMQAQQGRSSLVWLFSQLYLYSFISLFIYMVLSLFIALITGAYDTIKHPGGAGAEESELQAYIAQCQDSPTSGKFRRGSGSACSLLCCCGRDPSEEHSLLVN
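Tetracycline-induced TRPML1-DL cells are seeded and incubated overnight before loading with a no-wash Ca2+ dye and quencher. Agonist activity is taken from the 110 s fluorescence read following compound pin-transfer on an FDSS, before EC80 54-4 challenge.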
Six1-Eya2 blk – qHTS Assay for Inhibitors of the Six1/Eya2 Interaction. Homeobox protein SIX1 (Homo sapiens) + Protein phosphatase EYA2 (Homo sapiens), …. AlphaScreen GST-Six1/His-Eya2 binding, biochemical; hits give low values; control for the full effect not named in the record. activity change, % (concentration not given with the values). 360,000 compounds, 0.56% hits; in the data active = activity change below about -65%; inconclusive = about -30% to -65%; inactive = above about -30%; also: % is scaled to controls: 0 for no effect and ±100 for the full control effect
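Homogeneous AlphaScreen proximity assay pairing GST-Six1 with His-tagged Eya2 (added as 5X mix: 250 nM and 500 nM) in 50 mM Tris pH 8.0, 300 mM NaCl, 1 mM TCEP. Glutathione donor and nickel acceptor beads; 1 h, 37 °C, dark.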
CtBP-E1A inh – qHTS Assay for Inhibitors of the CtBP/E1A Interaction. AlphaScreen GST-E1A/His-CtBP binding, 1536-well; hits give low values; control for the full effect not named in the record. activity change, % (no concentration beside the values). 340,000 compounds, 0.49% hits. AID 651724, 2012; in the data active means activity change below about -65%; inconclusive means about -30% to -65%; inactive means above about -30%; also: % is scaled to controls: 0 for no effect and ±100 for the full control effect
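AlphaScreen with 125 nM GST-E1A and 125 nM His-CtBP (5X stocks) in Tris pH 8.0, 300 mM NaCl, BSA, Tween 20, TCEP. Compounds preincubated 2 h at 37 deg C, then glutathione donor/nickel acceptor beads added for 1 h at 37 deg C in dark.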
D2 ag – Beta-Arrestin HTS for Positive Allosteric Modulators of the Human D2 Dopamine Receptor: Agonists; DiscoveRx PathHunter D2 beta-arrestin, luminescence, 90 min; 100% = 57 uM dopamine signal; activation, % (concentration not given with the values); AID 624465, 2012; 360,000 compounds, 0.084% hits; in the data active = activation above about 40%; inconclusive = about 15% to 40%; inactive = below about 15%; also: the text of the record calls up to 30% inactive
Target sequence (P14416 whole entry, looked up): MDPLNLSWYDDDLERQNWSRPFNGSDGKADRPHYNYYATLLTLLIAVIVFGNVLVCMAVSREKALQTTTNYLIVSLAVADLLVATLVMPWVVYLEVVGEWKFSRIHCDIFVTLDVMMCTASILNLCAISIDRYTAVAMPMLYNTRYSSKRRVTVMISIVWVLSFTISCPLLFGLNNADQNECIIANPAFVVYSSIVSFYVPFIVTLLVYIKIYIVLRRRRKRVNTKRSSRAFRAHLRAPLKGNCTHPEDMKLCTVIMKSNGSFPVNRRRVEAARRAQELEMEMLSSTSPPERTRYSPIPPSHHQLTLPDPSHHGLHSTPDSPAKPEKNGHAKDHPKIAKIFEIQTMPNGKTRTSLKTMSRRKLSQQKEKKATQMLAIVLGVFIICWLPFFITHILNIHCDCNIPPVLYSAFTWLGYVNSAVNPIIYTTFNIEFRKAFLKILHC
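DiscoveRx PathHunter D2 beta-arrestin cells (2,100/well) attached overnight, then compound-stimulated 90 min at 37 C in HBSS/10 mM HEPES/0.1% Tween-20 buffer; beta-galactosidase complementation read by luminescence after 1 h at ambient temperature. Dopamine 57 uM final (EC100) as control.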
TRPML1 blocker – qHTS for Inhibitors of the Human Mucolipin Transient Receptor Potential 1 (TRPML1); Mucolipin-1 (Homo sapiens), Q9GZU1; TRPML1-inducible cells, Ca2+ dye fluorescence, FDSS; hits give low values; inhibition of EC80 agonist-evoked calcium signal; activity change, negative = inhibition, % (no concentration beside the values); 390,000 compounds, 0.02% hits; in the data active means activity change below about -50%; inconclusive means about -30% to -50%; inactive means above about -30%;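 also: stimulus is agonist 54-4 at its EC80 concentration; % is scaled to controls: 0 for no effect and ±100 for the full control effect; compound concentration not given in the record; the text of the record puts the active cut at -80%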
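TRPML1-DL cells, Tet-induced overnight (~16 h, 37 °C) at 1,500 cells/well, were loaded with Ca8 no-wash dye plus quencher for 45-90 min at room temperature. Compounds were pinned during FDSS kinetic reading; agonist 54-4 at EC80 (4 uM final) then added.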
PINK1 expr mod – A Quantitative High throughput Screen to Identify Chemical Modulators of PINK1 Expression. Potency, µM (series often up to 76.6 µM), for the others: top-dose activation (PINK1 increase), usual class: activators. AID 624263, 2012. PINK1 immunofluorescence, high-content cytometry, 24 h. 410,000 compounds, 0.2% hits; active = well fitted activation curve with a large enough effect; inconclusive = small, poorly fitted or top-dose-only effect; inactive = flat fitted curve, though single readings scatter; cell line not stated here;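 also: potency is read from the fitted curve at half-maximal effect; % of control where 0% means no effect; nearly all actives have a fitted effect of over 65% in size; a mitochondrial uncoupler was the plate control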
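Measures PINK1 amount and localization on or inside mitochondria by immunofluorescence. Stable cells get compounds at 5 concentrations for 24 hours before fixation and staining; CCCP controls included.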
* marks the source's active call; other numbers are inactive results; ? = inconclusive; . = not tested or not shown; & = joins results of further samples; [ ] = another dose, or the depositor's remark.

SMILES	TRPML1 ag	Six1-Eya2 blk	CtBP-E1A inh	D2 ag	TRPML1 blocker	PINK1 expr mod
Cc1cc(NC(=O)Cn2cnc3sc(C)c(C)c3c2=O)no1	-0.3	6	19	-5.0	-8	-1.8%
CCc1c(C)nc2ncnn2c1N1CCC(C(=O)NCc2cccc(OC)c2)CC1	2.9	-2	-4	-0.5	15	2.5%[38.3 µM]
CCc1nc2oc3cc(OC)ccc3c(=O)c2c(=O)n1Cc1ccccc1	1.2	-12	-17	-0.7	10	-5.4%[38.3 µM]
C=CCn1c(N)c(C(=O)N2CCN(C)CC2)sc1=S	0.3	0	-4	-2.9	-6	-2.7%[38.3 µM]
N#CC1(NC(=O)COC(=O)Cc2c[nH]c3ccccc23)CCCCC1	0.2	19	2	-4.2	-6	1.3%
CCCCc1n[nH]c(=S)n1Cc1ccc(Cl)cc1	-1.0	-1	1	13	6	6.3%
N#Cc1ccccc1OCC(=O)NCC(c1cccs1)N1CCOCC1 (configuration not stated)	0.4	1	6	2.4	-2	-1.2%
CCc1cccc(NS(=O)(=O)c2ccc3c(c2)N(CC(=O)OC)C(=O)CS3)c1	0.4	.	.	.	10	1.8%
CN(C(=O)c1cccc(NC(=O)Cc2ccc(NC(=O)C3CCCN(C(=O)C4CCCCC4)C3)cc2)c1)C1CC1 (configuration not stated)	1.1	10	4	1.3	9	-0.3%
CCCCCC(=O)N1C[C@H](n2cc(COC(=O)c3ccccc3)nn2)[C@@H](O)C[C@@H]1c1ccccc1	-0.3	1	0	-9.2	-5	0.9%
Cc1ccc(S(=O)(=O)CC(=O)c2ccc(C)c([N+](=O)[O-])c2)cc1	0.1	-3	0	2.3	10	0.3%
CCOC(=O)C1[C@H]2C(=O)N(CCCOC)C[C@]23C=C[C@H]1O3 (some centres not stated)	0.7	3	-8	4.0	-1	1.8%[38.3 µM]
CCN(CC)C(=O)Oc1nnc(SC(C)C)n1-c1ccc(Cl)c(Cl)c1	1.2	4	7	-4.8	19	0.7%
CN(Cc1cccnc1)C(=O)c1ccc(Cl)c(NS(=O)(=O)c2ccc(F)cc2)c1	-0.1	-6	7	-3.9	-5	5.1%
CC(=O)OC(C(=O)NC1CCCCC1)c1ccccc1Cl (configuration not stated)	2.6	5	.	-10	9	-0.6%
COc1cc(C(=O)O)cc(Br)c1OC1CCCC1	-0.3	5	2	-0.1	-6	.
CCCCN(C(=O)c1ccccc1F)c1c(N)n(CCC)c(=O)[nH]c1=O	-0.6	10	25	0.6	13	-0.7%
O=C(NC1CCCC1)C1CCN(C(=O)c2cccc(Cl)c2)CC1	1.1	-5	0	0.9	20	-0.1%
CCn1cc(C(=O)NCc2ccco2)c(=O)c2cc(S(=O)(=O)N3CCC(C)CC3)ccc21	-0.3	-13	-10	-3.1	-1	-1.2%
COc1ccc(Cn2nnc(C(=O)Nc3cc(OC)ccc3OC)c2N)cc1	0.7	.	.	.	60	2.0%
O=C(CN1C2CCC1CC(NC(=O)C1CC1)C2)NCc1ccccc1 (configuration not stated)	0.1	14	4	-5.1	2	1.7%
Cc1ccc(NC(=O)Cn2ccsc2=N)cc1S(=O)(=O)N(C)C	-0.1	-2	5	-3.1	1	-0.9%
CCOc1ccc(N2C(=O)C(CC(=O)Nc3ccc(F)cc3)N(Cc3ccccn3)C2=S)cc1 (configuration not stated)	0.9	-8	1	-0.6	1	?
CCOC(=O)C1(CCOC)CCN(CC(C)Cc2ccc3c(c2)OCO3)CC1 (configuration not stated)	-0.6	0	-12	13	5	1.2%
C=C1CCN(c2ccc(C(=O)NCc3ccc(OC)cc3)cc2[N+](=O)[O-])CC1	-0.1	-21	-1	-2.4	39	1.8%
COc1ccccc1C(=O)Oc1ccc2ccc(=O)oc2c1	1.7	39	-2	-3.3	25	-0.3%
COc1ccc(/C=N/NC(=O)c2cccnc2)cc1CN1CCc2cc(OC)c(OC)cc2C1C (configuration not stated)	-0.6	-3	6	-0.1	-10	3.2%
CCOC(=O)C1CCN(C(=O)Cc2ccc(C)cc2)CC1	0.3	-7	-4	-2.6	4	-2.4%
O=C(Cn1ncc2c3ccccc3n(Cc3ccccc3)c2c1=O)NCc1ccccn1	0.8&4.3	-2	-1	-1.2	5&22	0.7%&1.0%
CC(C)OC(=O)c1cc2c(=O)[nH]c(C(Cl)(Cl)Cl)nc2o1	0.1	5	0	3.6	-4	-1.1%

Compound profiles (already shown). Order of screens: TRPML1 ag | Six1-Eya2 blk | CtBP-E1A inh | D2 ag | TRPML1 blocker | PINK1 expr mod
CCN(CC)C(=O)Oc1nnc(SC(C)C)n1-c1ccc(Cl)c(Cl)c1 across the screens: 1.2 | 4 | 7 | -4.8 | 19 | 0.7%
COc1ccc(Cn2nnc(C(=O)Nc3cc(OC)ccc3OC)c2N)cc1 across the screens: 0.7 | . | . | . | 60 | 2.0%
O=C(NC1CCCC1)C1CCN(C(=O)c2cccc(Cl)c2)CC1 across the screens: 1.1 | -5 | 0 | 0.9 | 20 | -0.1%
COc1ccc(/C=N/NC(=O)c2cccnc2)cc1CN1CCc2cc(OC)c(OC)cc2C1C (configuration not stated) across the screens: -0.6 | -3 | 6 | -0.1 | -10 | 3.2%
CCOC(=O)C1(CCOC)CCN(CC(C)Cc2ccc3c(c2)OCO3)CC1 (configuration not stated) across the screens: -0.6 | 0 | -12 | 13 | 5 | 1.2%

Other structures follow:
SMILES	TRPML1 ag	Six1-Eya2 blk	CtBP-E1A inh	D2 ag	TRPML1 blocker	PINK1 expr mod
Cc1cccc(NC(=O)c2cc(Cl)nc3ccccc23)n1	0.0	-1	-1	-1.6	-11	1.7%
COC(=O)c1c(CSc2ccc(C)c(C)c2)noc1C(=O)NCc1ccc(OC)cc1	3.6	36	10	-0.8	-2	1.3%
Cc1ccc(NC(=O)COc2cccc(-n3cnnn3)c2)cc1S(=O)(=O)N1CCOCC1	-1.0	-9	.	2.6	29	2.4%
CCCN(CC(=O)Nc1ccccc1C)C(=O)CSc1ccccc1C	-0.7	4	.	-3.1	-1	0.1%
CC(C)N1CC(C(=O)Nc2ccc(Cl)c(Cl)c2)CC1=O (configuration not stated)	1.7	-1	-17	-0.5	-9	1.6%
O=[N+]([O-])c1ccc(C2CCCC/C2=N\OCc2cccc(F)c2)c([N+](=O)[O-])c1 (configuration not stated)	0.3	?	?	9.8	22	10%
CSc1nccc(N2CCN(c3ccc(F)cc3)CC2)n1	-0.5	-7	2	7.0	1	-1.2%
CS(=O)(=O)N(CC(=O)Nc1cccc([N+](=O)[O-])c1)c1ccccc1	0.4	6	.	-6.3	-7	1.6%
Cc1ccc(C(=O)CC2(O)C(=O)N(Cc3ccccc3Cl)c3ccccc32)o1 (configuration not stated)	-0.3	-10	-4	-2.6	-6	2.1%
CC[C@]12c3[nH]c4cc(CCC(=O)N(C)C)ccc4c3CCN1C(=O)[C@@H](CC(=O)NC(C)(C)C)C[C@@H]2C(=O)N1CCN(C(=O)c2ccco2)CC1	2.7	3	-1	-0.7	5	2.0%
Cc1ccnc(NC(=O)CCC(=O)N(CC(=O)NCc2ccccc2)Cc2ccc(F)cc2)c1	-0.4	0	-1	0.4	-5	1.5%
CCc1csc(CNC(=O)C2CCC(=O)N(Cc3cccc(OC)c3)C2)n1 (configuration not stated)	-0.5	0	4	-2.1	3	0.8%
O=C(CSc1nnc(-c2c[nH]c3ccccc23)o1)N(Cc1ccccc1)c1ccc(F)cc1	1.9	-8	2	2.2	11	0.9%[38.3 µM]
COc1ccc(CN2CCN(C(=O)c3ccc(S(=O)(=O)N4CCCCCC4)cc3)CC2)cc1	0.1	-4	3	-1.4	1	0.8%
Cc1cc(Cn2nc(-c3ccccc3C)cc2C(=O)O)on1	0.2	1	1	-1.9	17	2.8%
Cc1ccccc1C(=O)N1CCC(C(=O)N2CCCc3ccccc32)CC1	2.1	-3	2	2.6	-14	1.7%
O=C(COc1ccccc1F)NNC(=O)c1cccc(-n2cccc2)c1	1.3	2	19	-5.7	-7	-1.1%
CN(Cc1nccs1)C(=O)CC1C(=O)NCCN1Cc1ccc(-c2ccccc2)cc1 (configuration not stated)	0.1	-2	3	-2.8	31	-0.5%
O=C(COC(=O)COc1ccc(Cl)cc1Cl)NC1CCCCCC1	1.8	22	2	-0.7	4	-1.3%
COc1ccc(C(=O)CC(=O)C(=O)Nc2ccc(Cl)cc2)cc1	1.6	2	-7	-2.3	14	7.5%
COc1ccc(CCN(C)CCCC(C#N)(c2cc(OC)c(OC)c(OC)c2)C(C)C)cc1OC (configuration not stated)	-0.2	-2	-13	-2.6	13	1.8%
CCN(CC)S(=O)(=O)c1ccc(N2CCOCC2)c(NC(=O)CC2OC(=O)c3ccccc32)c1 (configuration not stated)	-0.2	-3	8	-0.3	13	0.6%
COc1cccc(N2C(=O)C(CC(=O)Nc3cccc(F)c3)N(C(C)C)C2=O)c1 (configuration not stated)	0.9	.	.	.	34	4.8%
Cc1[nH]n(-c2ccccc2)c(=O)c1/C=N/c1ccccn1	3.2	-2	0	-3.0	10	-0.9%
CCOC(=O)C1CCN(C(=O)C(C)Sc2nnc3ccccn23)CC1 (configuration not stated)	-0.5	0	0	-0.3	57	-0.1%
COc1cc(C(C)=O)ccc1OCC(=O)c1cc(C)n(C2CC2)c1C	2.5	-3	-14	1.3	29	-1.7%
O=C(NCC1CCCN(Cc2ccc3nonc3c2)C1)c1ccc(F)cc1 (configuration not stated)	-0.2	-3	-1	-3.5	0	-0.9%
Cc1ccccc1Cn1ccc(NC(=O)c2cnn3c2NC(c2ccccc2)CC3C(F)(F)F)n1 (configuration not stated)	3.4	11	25	-4.2	-11	11%[38.3 µM]
CC(=O)N1CCN(C(C)=O)c2ccccc21	-0.2	-2	14	-3.0	-2	-4.1%
CC1(C)OC2OC3C(CN)OC(c4ccccc4)OC3C2O1 (configuration not stated)	0.0	2	3	-4.7	9	1.9%
CCOC(=O)C1(C)NC(c2ccc(OC)c(OC)c2)C2C(=O)N(c3cccc(C(C)=O)c3)C(=O)C21 (configuration not stated)	-0.2	7	-24	-4.1	3	2.3%
CCC(C)NC(=O)C1CCN(S(=O)(=O)c2cccc3cccnc23)CC1 (configuration not stated)	-0.1	0	5	-2.3	15	1.1%
O=C(NS(=O)(=O)Oc1ccccc1F)OC[C@@H]1CCCN2CCCCC12 (some centres not stated)	0.9	-2	-10	-3.6	-9	-2.2%
O=C(O)Cc1ccc(OCc2ccc(Cl)nc2)cc1	1.7	5	-4	-4.1	17	-0.7%
